VDR inh = Inhibitors of the vitamin D receptor (VDR): qHTS. Vitamin D3 receptor (Homo sapiens), P11473. VDR-SRC2-3 peptide fluorescence polarization, 2 h. Potency, µM, inactives show max response, negative = inhibition, actives largely listed as inhibitors. actives 0.93% (n = 400,000). AID 504847, 2011; active = well fitted inhibition curve with a large enough effect; inconclusive = small, poorly fitted or top-dose-only effect, or another doubt; inactive = no such curve, though single readings can be large or run the other way; note: series mostly up to about 120 µM
Target sequence (P11473 whole entry, looked up): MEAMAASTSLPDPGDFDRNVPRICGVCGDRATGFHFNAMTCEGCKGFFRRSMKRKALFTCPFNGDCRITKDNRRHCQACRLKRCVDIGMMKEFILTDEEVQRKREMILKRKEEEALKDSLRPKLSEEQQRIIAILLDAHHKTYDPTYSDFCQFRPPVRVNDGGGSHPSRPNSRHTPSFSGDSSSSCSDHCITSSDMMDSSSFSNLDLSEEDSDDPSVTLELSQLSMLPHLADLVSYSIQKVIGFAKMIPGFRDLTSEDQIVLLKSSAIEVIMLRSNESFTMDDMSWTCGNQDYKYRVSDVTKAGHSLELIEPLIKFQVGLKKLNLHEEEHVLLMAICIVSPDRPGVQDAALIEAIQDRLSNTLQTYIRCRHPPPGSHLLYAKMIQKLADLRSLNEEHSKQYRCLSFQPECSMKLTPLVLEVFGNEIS
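Inhibition of the VDR/SRC2-3 peptide interaction is quantified by fluorescence polarization. Compounds (23 nl, pintool) incubate with the reagents for 2 hours at ambient room temperature.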
An asterisk follows results filed as active; ? = inconclusive; & = joins results of further samples; [ ] = remark or other dose. % is set by controls: 0 for no effect and ±100 for the full control effect; potency is the fitted concentration of half-maximal effect.

SMILES	VDR inh
FC(F)(F)c1cccc(N2CCN(Cc3nnc(-c4ccccc4)o3)CC2)c1	3%
Cc1cc(F)ccc1NC(=O)c1csc2c1CCC(C)C2 (stereo unspecified)	16%
COc1ccc(/C=C/C(=O)C2CC2)cc1COc1c(C)cccc1C	6%
Cc1ccc(S(=O)(=O)Nc2cccc(-c3ccc(N4CCCCCC4)nn3)c2)cc1C	-14%
Cc1ccc(C(C)NC(=O)c2cccs2)cc1C (stereo unspecified)	-14%
COc1ccc(OCc2cc(C(=O)N3C[C@H]4CC[C@H]3C4)no2)c(Cl)c1	6%
Cc1cccc(NS(=O)(=O)c2cccc(C(=O)NCC3(N4CCCCC4)CCCCC3)c2)c1	-4%
Cc1ccc(S(=O)(=O)N2CC(O)C[C@H]2C(=O)OCC(=O)c2ccccc2)cc1 (stereo partly specified)	-4%
COc1ccccc1NS(=O)(=O)c1cc(NC(=O)c2cccc(S(=O)(=O)N(C)C)c2)ccc1N1CCOCC1	-2%
CC(=O)n1cc(Nc2ccc([N+](=O)[O-])cc2)c2ccccc21	-4%
O=C(OCC(=O)N1CCCC1)c1cccs1	-11%
CC1CCN(C(=O)CSc2nc3ncccc3[nH]2)CC1	-15%
COc1ccc(-c2cc(C(=O)N3CCCCCC3)c3cc(C)ccc3n2)cc1	15%
O=C(NCC(c1cccs1)N1CCOCC1)c1ccccc1NS(=O)(=O)c1ccc(Cl)cc1 (stereo unspecified)	-9%
Cc1ccc(S(=O)(=O)N(C)Cc2nc(-c3ccccc3)oc2C)cc1	6%
CCOC(=O)C(=Cc1ccc(-n2ccnc2)cc1)C(=O)OCC	?
CCOC(=O)c1cnc(SC)nc1Oc1cccc(NS(=O)(=O)c2ccc(Cl)cc2)c1	-3%
Fc1ccc(CN2CCN3CCCC3C2C2CCCCC2)cc1F (stereo unspecified)	16%
COc1ccc(OC)c(-c2csc(-c3c(N)c(C(=O)c4ccccc4)n4ccccc34)n2)c1	17%
C/C(CCC(=O)O)=N/Nc1ccc([N+](=O)[O-])cc1[N+](=O)[O-]	-3%
Cc1cc(NS(=O)(=O)c2ccc(NC(=S)Nc3ccc(Cl)cc3C)cc2)no1	?
CCN(CC)C(=O)c1sc2c(c1C)c(=O)n(-c1ccccc1)c(=O)n2CC(=O)Nc1ccc(C)cc1C	-4%
O=C1CN(S(=O)(=O)c2cccc(Br)c2)CCN1	4%
O=c1ccn(C2OC(COP(=O)(O)OC3C(CO)OC(n4ccc(=O)[nH]c4=O)C3O)C(O)C2O)c(=O)[nH]1 (stereo unspecified)	-4%
COc1ccc(/C=N/Nc2cc(C)nc3ccc(OC)cc23)c(OC)c1	0%
CC(C)(C)NC(=O)CSc1ccc(C(C)(C)C)cc1	-9%
CCOc1ccc(S(=O)(=O)Nc2nc3ccccc3nc2Nc2ccc(OC)cc2)cc1	-12%
COc1ccc(/C=C/C(=O)OCC(=O)NCCC2=CCCCC2)cc1OC	16%
C=CCn1c(NC(=O)c2ccc(Br)o2)c(C(=O)OCC)sc1=S	89µM*
CC(OC(=O)/C=C/c1ccc2ccccc2n1)C(=O)N(C)c1ccccc1 (stereo unspecified)	-14%
COc1ccccc1-c1noc(CCCC(=O)NCc2ccco2)n1	6%
CC(C)OC(=O)c1nn2c(C(F)(F)F)cc(-c3ccc(Br)o3)nc2c1Br	-4%
CCc1ccc2nc(NC(=O)C3CSC4(C)CCC(=O)N34)sc2c1 (stereo unspecified)	12%
Nc1ccn(Cc2cccc(Cl)c2)n1	15%
CC[N+](CC)(CC)CCOc1cccc(OCC[N+](CC)(CC)CC)c1OCC[N+](CC)(CC)CC	9%&-4%&-17%&0%
COc1ccc(OC)c(Nc2nc(-c3sc(C)nc3C)cs2)c1	13%
COc1ccc(S(=O)(=O)NCC(c2ccco2)S(=O)(=O)c2ccc(C)cc2)cc1C (stereo unspecified)	-2%
CCCn1c(CN2CCN(C(=O)OCC)CC2)nc2cc([N+](=O)[O-])ccc21	-11%
CCc1ccc(Nc2n[n+](-c3ccccc3)c(-c3ccc(OC)c(Br)c3)s2)cc1	2%
CCOC(=O)CNC(=O)C1(/C=C/c2ccccc2)CC(=O)N1c1ccc(C)cc1 (stereo unspecified)	-8%
O=C(CCc1nnc(CCCCc2ccccc2)o1)NCCCc1cccnc1	4%
CCCOc1ccccc1C(=O)Nc1nc2c(s1)CCCC2	7%
COc1ccc(-n2c(N)c(C(=O)NCc3ccco3)c3nc4ccccc4nc32)cc1OC	-13%
CC(C)Cc1nc2oc3c(NCC(C)O)ncnc3c2c2c1CCCC2 (stereo unspecified)	12%
CC1=C(CCN2CCN(C(C)C)C(CCO)C2)C(C)(C)CCC1 (stereo unspecified)	-8%
CCS(=O)CCSC(=N)N (stereo unspecified)	0%
NC(=O)c1ccccc1N/C=C1\CCCCC1=O	-8%
O=C(OCc1nc2ccccc2s1)c1cnccn1	-4%
COc1ccccc1CNC1CCN(Cc2ccccc2)CC1	-7%
CSc1ccc(S(=O)(=O)NCC(=O)OCC(=O)NC2(C#N)CCCCC2)cc1[N+](=O)[O-]	-11%
Cc1ccccc1C(=O)Nc1ccc(N2CCCC2)cc1	6%
CN1CCN(S(=O)(=O)c2cccc(C(=O)N(C)Cc3cccs3)c2)CC1	3%
COCC(=O)N(C)C[C@H]1N[C@@](Cc2ccccc2)(C(=O)OC)[C@H]2C(=O)N(Cc3ccccc3)C(=O)[C@@H]12	?
NC(=O)C1CCN(C(=O)c2cc3c(s2)CCCC3)CC1	7%
COc1cccc(OC(=O)CSc2nnc(-c3ccc4c(c3)OCO4)o2)c1	10%
O=C(Nc1cccc(C(F)(F)F)c1)C1CCCO1 (stereo unspecified)	-2%
Cc1cccc(OCC(=O)OCC(=O)c2c(N)n(C)c(=O)n(C)c2=O)c1	-10%
CCCCN(C(=O)CSCC(=O)Nc1ccc(C)cc1)c1c(N)n(CC(C)C)c(=O)[nH]c1=O	0%
CS(=O)(=O)N1CCC2(CC1)CN(Cc1ccc(C#N)cc1)C2	15%
Cn1c(=O)c2cc(S(=O)(=O)NCCC(=O)NC3CCCCCC3)ccc2n(C)c1=O	-5%
Continuation:
SMILES	VDR inh
O=[N+]([O-])c1ccc(N2CCN(S(=O)(=O)c3ccc4ccccc4c3)CC2)cc1NCc1ccco1	-4%
COC(=O)C1=CN(Cc2ccccc2)C=C(C(=O)OC)C1c1ccc(OC)c(OC)c1	-3%
Brc1ccc(-c2cnnc(N3CCCC3)n2)cc1	-3%
NS(=O)(=O)c1cccc2c1c([N+](=O)[O-])cc1[nH]c(=O)c(=O)[nH]c12	-26%
CC(=O)N1CCC(N(Cc2ccco2)C(=O)Nc2cccc(C)c2)CC1	6%
CCOc1cc(C2C3=C(CC(C)(C)CC3=O)N(CCOC)C3=C2C(=O)CC(C)(C)C3)ccc1O	-6%
COC(=O)c1cc(S(=O)(=O)NCc2ccccc2Cl)c[nH]1	5%
COc1cc(/C=N/NC(=O)CCC(=O)NCc2ccccc2)cc(OC)c1OC	-24%
Cc1nc2ccccn2c1C(=O)N=Nc1c(O)n(CCC(C)C)c2ccccc12	-4%
COc1cccc(/C=C/C(=O)O)c1C(C)C	4%
O=C(Nc1ccccn1)c1ccc(Cl)c(S(=O)(=O)N2CCc3ccccc32)c1	8%
O=C(NCC1CCCO1)c1cc2ccccc2[nH]1 (stereo unspecified)	-15%
CCc1ccc(N(CC)C(=O)Cc2c(C(=O)O)n(C)c3ccccc23)cc1	-14%
Cc1cc[n+](CC(=O)c2cccc([N+](=O)[O-])c2)c2ccccc12	16%
COc1ccccc1CNC(=O)Cn1cccc1C(=O)c1ccccc1C	-9%
CSCCC(NC(=O)c1ccccc1)C(=O)N1CC(C)OC(C)C1 (stereo unspecified)	9%
CC(C)=CCN1CCN(Cc2cc(CC(C)C)n[nH]2)CC1CCO (stereo unspecified)	21%
CCn1cc(C2=NC(CC(C)C)CO2)c2ccccc21 (stereo unspecified)	24%
CCN(CC)/C(=N/S(=O)(=O)c1ccc(C)cc1)c1ccccc1	4%
CCOC(=O)c1cc(C#N)c(N2CCN(c3ccc(OC)cc3)CC2)[nH]c1=O	7%
O=C(CCCOc1ccc(Cl)cc1Cl)NCCc1nnc2ccccn12	-2%
CCCCN(C(=O)c1ccco1)C1CCS(=O)(=O)C1 (stereo unspecified)	5%
O=C(c1ccccc1Cl)N1CCCC(c2nc3c(nnn3Cc3ccccc3)c(=O)[nH]2)C1 (stereo unspecified)	30%[activator]
O=C(NNC(=O)C12CC3CC(CC(O)(C3)C1)C2)c1csc(N2CCOCC2)n1	0%
COc1ccccc1CNC(=O)c1nnn(CC(=O)Nc2c(C)cccc2C)c1N	-5%
O=C(NCCC(=O)N1CCN(c2ccccc2O)CC1)c1ccc(Cl)cc1	-22%
Cc1ccc2c(c1)-c1c(cnn1CC(=O)N(CCC#N)c1ccccc1)CO2	-21%
Cc1nn(Cc2ccccc2Cl)c(C)c1NC(=O)c1noc(C(C)C)c1[N+](=O)[O-]	14%
COc1ccc(-c2cc(-c3ccc(F)cc3)nc3c2COc2ccccc2-3)cc1	0%
COc1ccc(C(N)CCc2ccc(C)o2)cc1 (stereo unspecified)	6%
COc1cc(OC)cc(C(=O)NC(=S)Nc2ccc(N3CCCC3)cc2)c1	-6%
C=C[C@@H]1c2cc(C)ccc2N(S(=O)(=O)c2ccc(C)cc2)[C@H](c2ccc(OC(C)=O)cc2)C1(C#N)C#N	1%
COc1cc(NC(=S)Nc2cccc(Cl)c2Cl)c(OC)cc1Cl	-5%
C#CCOCCOCCOCCNc1nc(N2CCN(C(=O)[C@H](Cc3cc4ccccc4[nH]3)n3cc(C(N)CC(C)C)nn3)CC2)nc(N2CCN(C(=O)[C@H](CCC(=O)O)n3cc(C(N)[C@H](C)CC)nn3)CC2)n1 (stereo partly specified)	-14%
COc1ccc(C#Cc2c[nH]c(=O)c3cncnc23)cc1OC	-21%
CCOC(=O)c1c(S(=O)(=O)N2CCCCCC2)c(C)n(C)c1C	?
O=C(Nc1ccc(Cl)cn1)C1CCCN1S(=O)(=O)c1cccc2ccccc12 (stereo unspecified)	6%
O=c1[nH]c(SCc2n[nH]c(=S)n2-c2ccccc2)nc2ccccc12	3%
CCN(CC(=O)NCc1ccc(F)cc1)C(=O)c1oc2ccccc2c1C	-12%
Cc1c(C(=O)O)oc2c1C(O)CC(C)(C)C2 (stereo unspecified)	16%&1%
CCCCS(=O)CC(CS(=O)CCCC)OC(=O)c1ccccc1 (stereo unspecified)	-10%
Cc1c(C(=O)NCCCN2CCCCC2)oc2ccc3c(c12)C(O)CC1(CCCCC1)O3 (stereo unspecified)	?
C(=N\Nc1nc2ccccc2[nH]1)/C1CCCCC1	-5%
CCn1cc(C(=O)NCCCN(CC(C)C)CC(C)C)c(=O)c2cc(S(=O)(=O)N3CCOCC3)ccc21	18%
O=C(c1ccccc1)c1ccc(OCCO)cc1	1%
Cc1ccc(S(=O)(=O)C(CNC(=O)C(=O)NCc2ccc(Cl)cc2)c2cccs2)cc1 (stereo unspecified)	12%
O=C(N/C(=C\c1ccccc1)C(=O)N1CCCCC1)c1ccco1	5%
O=C1c2[nH]nc(-c3ccccc3O)c2C(c2cccc(Cl)c2)N1Cc1ccco1 (stereo unspecified)	-13%
Cc1cc(C)c2oc(-c3cccc(NC(=O)c4ccc(Br)o4)c3)nc2c1	-6%
COc1ccc2c(c1)c(C(=O)CN1CCN(c3ccccc3)CC1)c(C)n2C	-11%
CC1CN(S(=O)(=O)c2cn(C)c(=O)n(C)c2=O)CC(C)O1 (stereo unspecified)	7%
CCCCOC(=O)Cn1c2ccc(OC)cc2c2nc3ccccc3nc21	-5%
Cc1oc(-c2ccccc2F)nc1CS(=O)(=O)CC(=O)NCCCN1CC(C)CC(C)C1 (stereo unspecified)	18%
Cc1cc(C(=O)Nc2c(C)nn(Cc3ccc(F)cc3)c2C)no1	-7%
O=C(NCCC1=CCCCC1)c1cccc(S(=O)(=O)N2CCCCC2)c1	7%
O=C(O)CCN(CCC(=O)O)c1nnc(SCc2ccccc2)s1	10%
CN(C)C(=O)c1cc(C(=O)c2ccc(C(F)(F)F)cc2F)c[nH]1	-2%
NC(=O)C1CCN(CC(=O)Nc2nccs2)CC1	8%
Cc1ccc(-c2[nH]ncc2CN2CCN(C(=O)c3cccs3)CC2)cc1C	14%
C=CCSc1ncccc1C(=O)NCCc1ccccc1	2%

No new results follow: entries from further up.
SMILES	VDR inh
O=C(c1ccccc1)c1ccc(OCCO)cc1	1%
Cc1ccc(S(=O)(=O)C(CNC(=O)C(=O)NCc2ccc(Cl)cc2)c2cccs2)cc1 (stereo unspecified)	12%
O=C(N/C(=C\c1ccccc1)C(=O)N1CCCCC1)c1ccco1	5%
O=C1c2[nH]nc(-c3ccccc3O)c2C(c2cccc(Cl)c2)N1Cc1ccco1 (stereo unspecified)	-13%
Cc1cc(C)c2oc(-c3cccc(NC(=O)c4ccc(Br)o4)c3)nc2c1	-6%
COc1ccc2c(c1)c(C(=O)CN1CCN(c3ccccc3)CC1)c(C)n2C	-11%
CC1CN(S(=O)(=O)c2cn(C)c(=O)n(C)c2=O)CC(C)O1 (stereo unspecified)	7%
CCCCOC(=O)Cn1c2ccc(OC)cc2c2nc3ccccc3nc21	-5%
Cc1oc(-c2ccccc2F)nc1CS(=O)(=O)CC(=O)NCCCN1CC(C)CC(C)C1 (stereo unspecified)	18%
Cc1cc(C(=O)Nc2c(C)nn(Cc3ccc(F)cc3)c2C)no1	-7%
O=C(NCCC1=CCCCC1)c1cccc(S(=O)(=O)N2CCCCC2)c1	7%
O=C(O)CCN(CCC(=O)O)c1nnc(SCc2ccccc2)s1	10%
CN(C)C(=O)c1cc(C(=O)c2ccc(C(F)(F)F)cc2F)c[nH]1	-2%
NC(=O)C1CCN(CC(=O)Nc2nccs2)CC1	8%
Cc1ccc(-c2[nH]ncc2CN2CCN(C(=O)c3cccs3)CC2)cc1C	14%
C=CCSc1ncccc1C(=O)NCCc1ccccc1	2%

The list is partial, so the mix of outcomes need not match the whole.
